Bioassay records deposited in PubChem by National Center for Advancing Translational Sciences (NCATS).
TRPV1 potentiator – HTS Assay for Compounds that Act as Potentiators of the Vanilloid Receptor 1; Transient receptor potential cation channel subfamily V member 1 (Homo sapiens), Q8NER1; TRPV1-expressing cells, Fluo-8 calcium influx, capsaicin EC20 potentiation; host cell line not named in the record; control for the full effect not named in the record; potentiation, % at 8.33 µM; actives 0.02% (n = 320,000); AID 540277, 2011; active means potentiation above 80%; inconclusive means 30% to 80%; inactive means below 30%; note: 0% is about no effect
Target sequence (Q8NER1 whole entry, looked up): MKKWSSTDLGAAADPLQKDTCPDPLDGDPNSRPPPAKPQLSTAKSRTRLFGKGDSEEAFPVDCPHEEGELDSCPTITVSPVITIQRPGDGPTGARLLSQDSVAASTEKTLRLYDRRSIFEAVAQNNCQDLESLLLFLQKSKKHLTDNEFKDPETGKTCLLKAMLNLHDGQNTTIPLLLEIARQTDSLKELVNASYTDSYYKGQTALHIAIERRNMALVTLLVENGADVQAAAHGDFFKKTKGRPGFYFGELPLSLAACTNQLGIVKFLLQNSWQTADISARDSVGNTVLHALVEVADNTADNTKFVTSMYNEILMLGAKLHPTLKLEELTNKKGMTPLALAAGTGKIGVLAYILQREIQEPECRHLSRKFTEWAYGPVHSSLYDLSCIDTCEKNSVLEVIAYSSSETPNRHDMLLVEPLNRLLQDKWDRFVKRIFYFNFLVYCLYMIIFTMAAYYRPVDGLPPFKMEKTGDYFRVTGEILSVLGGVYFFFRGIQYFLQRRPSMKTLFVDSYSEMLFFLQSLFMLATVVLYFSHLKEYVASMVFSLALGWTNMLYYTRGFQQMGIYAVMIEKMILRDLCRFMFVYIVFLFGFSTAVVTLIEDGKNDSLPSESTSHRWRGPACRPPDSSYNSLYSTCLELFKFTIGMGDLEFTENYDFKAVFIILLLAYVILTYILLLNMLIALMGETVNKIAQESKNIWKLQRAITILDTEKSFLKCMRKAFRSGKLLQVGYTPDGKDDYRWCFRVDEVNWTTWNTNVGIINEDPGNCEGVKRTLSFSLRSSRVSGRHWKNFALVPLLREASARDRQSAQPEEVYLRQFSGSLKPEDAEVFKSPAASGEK
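Cells expressing TRPV1 were dye-loaded with Fluo-8 and read kinetically: 10 s baseline, 3 min after compound (agonist portion), then 2 min after EC20 capsaicin (allosteric enhancer portion). Calcium-bound dye fluorescence at 480/520 nm.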
gsp antagonist – qHTS for Antagonists of gsp, the Etiologic Mutation Responsible for Fibrous Dysplasia/McCune-Albright Syndrome: qHTS; gsp-mutant cells, cAMP HTRF, 30 min; control for the full effect not named in the record; Potency, µM (top dose mostly 76.9 µM), for inactives: at the highest dose activity change, negative = inhibition, actives largely listed as inhibitors; actives 0.4% (n = 340,000); active = falling curve of any shape with a large fitted effect; inconclusive = falling curve, mostly with a smaller effect; inactive = flat or rising curve; cell line not stated here;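 note: intracellular cAMP measured with PDE inhibitor Ro 20-1724 present during compound exposure; potency is the fitted concentration of half-maximal effect; % is set by controls: 0 for no effect and ±100 for the full control effect; nearly all actives have a fitted effect of over 65% in size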
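Measurement of cellular cAMP by homogeneous time-resolved fluorescence following a 30 min compound exposure at 37C. The PDE inhibitor […] was present throughout; the assay buffer was DPBS with 0.05% BSA and 0.005% Tween 20.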
CtBP-E1A inh – qHTS Assay for Inhibitors of the CtBP/E1A Interaction | CtBP / adenovirus E1A interaction (AlphaScreen) | AlphaScreen GST-E1A/His-CtBP binding, 1536-well; stronger effect = lower value; control for the full effect not named in the record | activity change, % (test concentration not listed) | actives 0.49% (n = 340,000) | AID 651724, 2012; in the data active means activity change below about -65%; inconclusive means about -30% to -65%; inactive means above about -30%; note: % is set by controls: 0 for no effect and ±100 for the full control effect; compound concentration not given in the record
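AlphaScreen with 125 nM GST-E1A and 125 nM His-CtBP (5X stocks) in Tris pH 8.0, 300 mM NaCl, BSA, Tween 20, TCEP. Compounds preincubated 2 h at 37 deg C, then glutathione donor/nickel acceptor beads added for 1 h at 37 deg C in dark.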
ClpP mod – qHTS Assay for Activators of ClpP; purified B. subtilis ClpP, FRET peptide cleavage, 20 min; Potency, µM (highest dose often 57.5 µM), without a hit: at the top dose activity change, negative = active; actives 1.9% (n = 340,000); ATP-dependent Clp protease proteolytic subunit (Bacillus subtilis (strain 168)), P80244; active = well fitted falling curve with a large enough effect; inconclusive = small, poorly fitted or top-dose-only effect; inactive = no such curve, though single readings can be large or run the other way; note: potency is the fitted concentration of half-maximal effect; the source files actives as falling curves though it sought activators and does not explain the sign; nearly all actives have a fitted effect of over 65% in size; many hits overshoot -100%
Target sequence (P80244 whole entry, looked up): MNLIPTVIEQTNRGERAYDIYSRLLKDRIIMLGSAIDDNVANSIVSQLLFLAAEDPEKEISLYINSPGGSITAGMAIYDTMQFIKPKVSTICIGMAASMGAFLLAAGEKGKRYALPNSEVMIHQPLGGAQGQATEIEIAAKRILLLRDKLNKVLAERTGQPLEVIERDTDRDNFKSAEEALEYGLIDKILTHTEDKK
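FRET quenching reversal measured ClpP activation: 10 microg/mL B. subtilis ClpP at pH 8 with the FRET-FV decapeptide, read at 430 nm after 320 nm excitation. The 20-min minus 0-min signal was scaled between DMSO/no-enzyme wells and ADEP (5.8 microM final).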
Menin-MLL FL inh – qHTS Assay for Inhibitors Targeting the Menin-MLL Interaction in MLL Related Leukemias: Competition With Fluorescein Labeled MLL-derived Peptide. Fluorescence polarization, fluorescein-MLL peptide displacement from menin. FP activity change, % at 61.4 µM. AID 1766, 2009. 290,000 tested, under 10 active; inconclusive = falling polarisation curve, or a change in total fluorescence; inactive = total fluorescence flat and polarisation flat or rising; no compound was filed as active; the % refers to the polarisation; negative = inhibition;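 note: % of control where 0% means no effect; inhibitors lower the polarisation; unlabelled MLL peptide was the positive control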
gsp agonist – qHTS for Agonist of gsp, the Etiologic Mutation Responsible for Fibrous Dysplasia/McCune-Albright Syndrome: qHTS; AID 624287, 2012; actives 0.13% (n = 340,000); gsp mutant cells, cAMP HTRF, 30 min; control for the full effect not named in the record; Potency, µM (doses to about 76.9 µM), without a hit: at the top dose activation (cAMP increase), hits mostly activators; active = well fitted activation curve with a large enough effect; inconclusive = small, poorly fitted or top-dose-only effect, or another doubt; inactive = no such curve, though single readings can be large or run the other way; cell line not stated here;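 note: phosphodiesterase inhibitor Ro 20-1724 added with compounds to block cAMP breakdown; potency is the fitted concentration of half-maximal effect; nearly all actives have a fitted effect of over 60% in size; about a fifth of the inactives were tested at one dose only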
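Cells in DMEM/10% FBS with G418 were pretreated with compounds in DMSO plus […] (300 uM stock) for 30 min at 37C. cAMP was measured by HTRF (cAMP-d2 plus anti-cAMP antibody-K) after 30 min at room temperature.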
Sfp inh – qHTS Assay for Inhibitors of Bacillus subtilis Sfp phosphopantetheinyl transferase (PPTase) | 4'-phosphopantetheinyl transferase ffp (Bacillus subtilis), Q9F4F7 | Biochemical Sfp PPTase activity, qHTS | Potency, µM, without a hit: max response, negative = inhibition, most hits filed as inhibitors | actives 3.5% (n = 310,000) | AID 1490, 2009; active = well fitted inhibition curve with a large enough effect; inconclusive = small, poorly fitted or top-dose-only effect, or another doubt; inactive = no such curve, though single readings can be large or run the other way;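 note: the enzyme is Sfp with the accession as filed and its product quenches rhodamine fluorescence; potency is the fitted concentration of half-maximal effect; 0% = enzyme reaction without inhibitor and -100% = no enzyme wells; top concentration of the series not given in the record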
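Sfp 15 nM + cpd, 15 min RT; start w/ rhodamine-CoA 5 uM, BHQ-2-YbbR 12.5 uM (final); 50 mM Hepes pH 7.6, 10 mM MgCl2, 0.01% NP-40, 0.01% BSA; read 525/598 nm at 0 and 30 min.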
The depositor's hits bear a star; ? = inconclusive; nt = not tested or not shown; [ ] = remark or other dose.

Sample of the layout (3 entries):
Results follow in this order: TRPV1 potentiator	gsp antagonist	CtBP-E1A inh	ClpP mod	Menin-MLL FL inh	gsp agonist	Sfp inh
> CCCn1cc(CN2CCC(Oc3ccc(C(=O)N4CCCC4)cc3)CC2)c(C)n1
 : ?	10%	4	-1.9%	nt	19%	18%
> Cc1cccc(NC(=O)c2cc([N+](=O)[O-])ccc2N2CCCCC2)n1
 : -6	1%	3	1.7%	2.8	-7%[15.4 µM]	-14%
> O=S(=O)(NCc1ccc2c(c1)OCO2)c1cnc[nH]1
 : nt	12%	4	0.1%	1.7	-46%[inhibitor]	17%

This part in full, repeating the preview:
Results follow in this order: TRPV1 potentiator	gsp antagonist	CtBP-E1A inh	ClpP mod	Menin-MLL FL inh	gsp agonist	Sfp inh
> CCCn1cc(CN2CCC(Oc3ccc(C(=O)N4CCCC4)cc3)CC2)c(C)n1
 : ?	10%	4	-1.9%	nt	19%	18%
> Cc1cccc(NC(=O)c2cc([N+](=O)[O-])ccc2N2CCCCC2)n1
 : -6	1%	3	1.7%	2.8	-7%[15.4 µM]	-14%
> O=S(=O)(NCc1ccc2c(c1)OCO2)c1cnc[nH]1
 : nt	12%	4	0.1%	1.7	-46%[inhibitor]	17%
> Cn1c(=O)c2c(ncn2CC(=O)OCC(=O)c2ccc(F)c(F)c2)n(C)c1=O
 : 9	5%	2	0.8%	nt	-32%[inhibitor]	9%
> CCC(=O)NS(=O)(=O)c1cccnc1Nc1ccc(Cl)cc1
 : 12	-8%	-9	-59%	2.4	0%	20%
> COc1ccc(NS(=O)(=O)c2cc(NC(=O)c3ccccn3)ccc2OC)cc1Br
 : nt	-23%	-5	0.5%	nt	16%	nt
> Cc1ccc(-c2nn(CC(=O)NCC3CCCO3)c(=O)c3ccccc23)cc1 (configuration not stated)
 : -14	4%	1	-3.5%	0.2	10%	4%
> CCOC(=O)C1(Cc2cccc(F)c2)CCN(C(=O)c2cnccn2)CC1
 : 0	5%	5	nt	-0.5	12%[15.4 µM]	15%
> Cc1c(CCO)c(=O)[nH]n1S(=O)(=O)c1ccc(F)cc1
 : -10	-7%	6	0.9%	0.5	-13%	10%
> CCOC(=O)C1CCN(C(=O)c2c(-c3c(F)cccc3Cl)noc2C)CC1
 : -1	-11%	3	-1.6%	-0.7	-6%	-12%
> O=C1CC(C(=O)NC2CCCCC2)C(c2ccccc2)O1 (configuration not stated)
 : ?	5%	0	2.3%	6.7	-44%[inhibitor]	11%
> CC1(c2ccncc2)Nc2ccccc2-c2nc3ccccc3n21 (configuration not stated)
 : -4	-10%	-2	28µM*	-1.8	-52%[inhibitor]	10%
> O=C(NCCc1ccccc1Cl)C1CCC(=O)N(C2CCCCCC2)C1 (configuration not stated)
 : -3	8%	0	-1.4%	-2.4	?	3%
> O=C(O)COc1nsnc1N1CCOCC1
 : 9	4%	1	2.9%	-6.2	13%	19%
> COc1ccc(C2=NOC(CN3C(=O)c4ccccc4S3(=O)=O)C2)cc1 (configuration not stated)
 : -8	-19%	2	-0.2%	1.3	5%	14%
> Cc1ccc(CN2C(=O)c3ccccc3C2C(=O)NCc2cccnc2)cc1 (configuration not stated)
 : 0	2%	4	-0.9%	3.0	-17%	7%
> COc1ccc(NC(=O)CSc2nc(N)c3cc4c(nc3n2)CCCC4)cc1
 : 1	-2%	?	-4.3%	8.7	12%[15.4 µM]	25%
> O=C(COc1ccccc1)N1CCN(S(=O)(=O)Cc2ccccc2)CC1
 : -4	4%	7	1.2%	-0.9	-4%	12%
> COc1ccc(-c2nc(Cn3c(SCc4ccc(F)cc4)nc4ccncc43)c(C)o2)cc1OC
 : 6	0%	6	-14%	1.5	?	-2%
> CCOC(=O)N1CC=C2C(C#N)=C(N)C(C#N)(C#N)[C@H](c3ccc(OC(C)C)c(OCC)c3)[C@H]2C1
 : 18	-2%	1	-2.6%	?	11%	-18%
> S=C1SCN(Cc2cccs2)CN1Cc1cccs1
 : nt	nt	0	0.4%	nt	0%	nt
> COc1cccc(OC)c1C(=O)N=c1sc2cc(S(C)(=O)=O)ccc2n1C
 : -1	4%	2	nt	-2.0	-63%[inhibitor]	29%
> O=S(=O)(N=C(NS(=O)(=O)c1ccc(Cl)cc1)c1ccccc1)c1ccc(Cl)cc1
 : nt	-9%	14	0.3%	nt	17%[15.4 µM]	nt
> C=C(C)CSc1nnc([C@H](CCSC)NC(=O)OC(C)(C)C)o1
 : 7	-4%[15.4 µM]	0	-0.4%	0.8	?	-19%
> CSc1nc2oc3c(c2c2nncn12)CC(C)(C)SC3
 : -6	5%[15.4 µM]	-14	?	?	9%	40µM*
> COc1cc([N+](=O)[O-])ccc1NC(=O)NCC1CCN(Cc2ccc(Cl)cc2)CC1
 : -32	-6%	-26	-1.0%	1.1	-41%[inhibitor]	-1%
> CCn1c(=NC(=O)CSC(C)=O)sc2cc(OC)ccc21
 : 21	?	-9	-4.2%	-1.1	2%	18%
> CN(C)c1ccc(N2C(=NC(=O)CCC3CCCC3)SC3CS(=O)(=O)CC32)cc1 (configuration not stated)
 : 0	11%	1	nt	-0.6	-19%	3%
> CC(O)c1nc2ccccc2n1CC(=O)Nc1ccc2c(c1)OCCO2 (configuration not stated)
 : 24	0%	2	nt	7.2	?	13%
> Cc1cc(N2CCN(c3ccccc3)CC2)nc(-c2ccccc2O)n1
 : 15	7%	-7	?	3.2	10%	-4%

An excerpt from above in order of length of the SMILES, falling.
Results follow in this order: TRPV1 potentiator	gsp antagonist	CtBP-E1A inh	ClpP mod	Menin-MLL FL inh	gsp agonist	Sfp inh
> CN(C)c1ccc(N2C(=NC(=O)CCC3CCCC3)SC3CS(=O)(=O)CC32)cc1 (configuration not stated)
 : 0	11%	1	nt	-0.6	-19%	3%
> COc1ccc(NS(=O)(=O)c2cc(NC(=O)c3ccccn3)ccc2OC)cc1Br
 : nt	-23%	-5	0.5%	nt	16%	nt
> CCn1c(=NC(=O)CSC(C)=O)sc2cc(OC)ccc21
 : 21	?	-9	-4.2%	-1.1	2%	18%
> CSc1nc2oc3c(c2c2nncn12)CC(C)(C)SC3
 : -6	5%[15.4 µM]	-14	?	?	9%	40µM*

New compounds follow:
Results follow in this order: TRPV1 potentiator	gsp antagonist	CtBP-E1A inh	ClpP mod	Menin-MLL FL inh	gsp agonist	Sfp inh
> CC(CCc1ccc(O)cc1)NC1c2ccccc2-c2ccccc21 (configuration not stated)
 : -10	-1%	nt	-1.8%	6.3	-1%	0%
> COc1ccc(S(=O)(=O)N(CC(=O)NCc2ccco2)c2ccc(C)cc2)cc1OC
 : 13	4%	-13	-2.6%	-9.4	-5%[15.4 µM]	13%
> COC(=O)c1nc2ccc(N3CCOCC3)cc2c(C)c1C(=O)OC
 : -4	13%	-1	nt	?	9%[15.4 µM]	1%
> O=C(Cc1cccc(NC(=O)C2CCCN(C(=O)CCc3ccccc3)C2)c1)Nc1cccc(C(=O)N2CCCC2)c1 (configuration not stated)
 : -3	-13%	-3	-0.6%	nt	-6%	nt
> O=S1c2ccccc2Oc2ccccc21
 : nt	2%	2	nt	nt	-25%	nt
> CCOc1ccccc1CN1CCNC(=O)C1CC(=O)NC1CCCCC1 (configuration not stated)
 : 29	10%	2	-18%	nt	8%	6%
> COc1ccc(C(=O)Nc2ccc(S(=O)(=O)N3CCOCC3)cc2)cc1
 : nt	-13%	-3	-0.1%	nt	-4%[15.4 µM]	nt
> COc1ccccc1NS(=O)(=O)c1cc(NC(=S)NCC2CCCO2)ccc1C (configuration not stated)
 : 2	-1%	nt	nt	4.9	12%[15.4 µM]	-4%
> COC(=O)c1ccccc1NC(=O)c1ccc(COc2ccc3c(c2)CCC3)cc1
 : -9	-1%	4	?	-0.9	-59%[inhibitor]	20%
> Cc1cc2[nH]ncc2cc1NC(=S)NC(=O)c1ccccc1
 : -7	?	-14	8.4%	4.9	-5%	1%
> CC(C)/C(=N\NS(=O)(=O)c1ccc(Br)cc1)c1cccs1
 : 3	-7%	6	nt	-0.2	-4%[15.4 µM]	18%
> COc1ccc(/C=N/N2CCN(c3ccc(Cl)cc3)CC2)cc1
 : -5	3%	10	0.0%	-0.8	-6%[15.4 µM]	14%
> CCSc1cc(N2CCOCC2)nc(-c2ccc(Cl)cc2)n1
 : -13	-1%	-3	?	1.0	0%	-12%
> Cc1cc(C(=O)NCc2cccs2)nn1C
 : -11	11%	0	nt	5.4	0%[15.4 µM]	6%
> O=C(NCc1ccccc1)N1CCOCC1
 : 5	18%	4	0.0%	3.0	?	-2%
> CCc1ccc(NC(=O)C2CCCN(S(=O)(=O)c3cccs3)C2)cc1 (configuration not stated)
 : -20	12%	6	nt	6.2	-6%	29%
> c1ccc(OCCSc2nc3ccccc3o2)cc1
 : -13	6%	85	-1.6%	0.0	-1%	-2%
> Cc1[nH]nc2nc3c(c(OC(=O)c4ccccc4)c12)c(=O)n(C)c(=O)n3C
 : 7	nt	nt	nt	-2.2	nt	-12%
> O=C(Nc1cccc(S(=O)(=O)Nc2ccccc2Cl)c1)c1ccc(Cl)nc1
 : 10	?	0	-0.9%	-0.3	-58%[inhibitor]	-3%
> O=c1c2ccccc2nc2n1C1(CCCCC1)Cc1ccccc1-2
 : -1	-4%	8	-3.8%	-3.0	7%	1%

Not a hit list; 5.3% or so of the library scored in one or more.
